Source: PubChem (National Center for Advancing Translational Sciences (NCATS))
TRPML1 blocker: inhibitors of human TRPML1 channel. TRPML1-inducible cells, Ca2+ dye fluorescence, FDSS; hits give low values; inhibition of EC80 agonist-evoked calcium signal. AID 624415. 0.02% of 390,000 active. activity change, negative = inhibition, % (concentration not given with the values); in the data active means activity change below about -50%; inconclusive means about -30% to -50%; inactive means above about -30%;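 further: stimulus is agonist 54-4 at its EC80 concentration; on the % scale 0 is the no-effect control and ±100 the full control effect; compound concentration not given in the record; the text of the record puts the active cut at -80%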
Target sequence (Q9GZU1 whole entry, looked up): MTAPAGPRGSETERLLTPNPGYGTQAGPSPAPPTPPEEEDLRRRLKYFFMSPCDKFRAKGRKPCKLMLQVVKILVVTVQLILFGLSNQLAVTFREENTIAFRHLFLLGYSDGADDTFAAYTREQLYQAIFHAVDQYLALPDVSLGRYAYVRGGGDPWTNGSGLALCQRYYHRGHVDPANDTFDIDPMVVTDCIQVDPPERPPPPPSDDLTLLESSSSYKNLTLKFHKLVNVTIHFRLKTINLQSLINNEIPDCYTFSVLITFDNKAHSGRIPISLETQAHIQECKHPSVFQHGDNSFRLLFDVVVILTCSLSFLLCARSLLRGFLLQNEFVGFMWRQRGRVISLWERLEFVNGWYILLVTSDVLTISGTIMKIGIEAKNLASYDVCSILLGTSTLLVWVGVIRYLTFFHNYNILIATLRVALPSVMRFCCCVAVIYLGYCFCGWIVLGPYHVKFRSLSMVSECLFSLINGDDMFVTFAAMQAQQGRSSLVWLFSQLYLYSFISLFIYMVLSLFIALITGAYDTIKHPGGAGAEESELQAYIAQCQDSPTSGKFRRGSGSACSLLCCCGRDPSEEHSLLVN
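TRPML1-DL cells, Tet-induced overnight (~16 h, 37 °C) at 1,500 cells/well, were loaded with Ca8 no-wash dye plus quencher for 45-90 min at room temperature. Compounds were pinned during FDSS kinetic reading; agonist 54-4 at EC80 (4 uM final) then added.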
TRPML1 agonist: activates the human TRPML1 channel; TRPML1-expressing cells, Ca2+ dye fluorescence, FDSS; host cell line not named in the record; reference of the full effect not given here; Q9GZU1; 0.12% of 410,000 active; activation, % (test concentration not listed); in the data active = activation above about 50%; inconclusive = about 30% to 50%; inactive = below about 30%; further: 0% is about no effect; the text of the record puts the active cut at 80%
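Tet-induced TRPML1-DL cells, 1,500 per well, cultured overnight, were loaded with a no-wash Ca2+ dye for 45–90 min. Calcium fluorescence was recorded on the FDSS for 110 s after compound addition, before the EC80 agonist (4 uM 54-4) was added.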
* = called active by the depositor; ? = inconclusive.

canonical_smiles	TRPML1 blocker	TRPML1 agonist
COc1ccc(C2CC(=O)c3cc(-c4nc(-c5cccc([N+](=O)[O-])c5)cs4)c(=O)n(-c4cc(C)cc(C)c4)c3C2)cc1 (stereo not given)	3	-0.2
Cc1ccc(C2C=C(c3ccccc3)Nc3nc(NS(C)(=O)=O)nn32)cc1 (stereo not given)	-7	2.0
O=C(NCc1ccccc1Cl)C1CCCN(c2nc3ccccc3n3cccc23)C1 (stereo not given)	29	5.0
Cc1ccc(C)c(Nc2nn3c(=O)c4ccc(C(=O)NC5CCCCC5)cc4nc3s2)c1	31	0.7
Cc1ccc(CNC(=O)c2ccc3c(c2)N(Cc2cccc(C)c2)C(=O)CS3)cc1	26	1.1
Cc1ccc(Cn2c(=O)n(Cc3ccco3)c(=O)c3oc4ccccc4c32)cc1	-14	1.0
COc1ccc(CNC(=O)Cc2c(C)c3c(cc(C)c4c(C)c(C)oc43)oc2=O)cc1OC	14	-0.4
COc1ccc(OC)c(NC(=O)CSC2=Nc3ccccc3C3=NC(CC(=O)NCc4ccc5c(c4)OCO5)C(=O)N23)c1 (stereo not given)	-6	2.0
CCCN1CCN(CC2=C(C(=O)OCC)C(c3cccc(OC)c3OC)NC(=O)N2)CC1 (stereo not given)	-9	-1.0
CCCN1Cc2cccc(C(=O)Nc3cccc(C(=O)OCC)c3)c2C1=O	7	0.7
CNS(=O)(=O)c1cc(-c2nnc(Nc3cc(C)ccc3C)c3ccccc23)ccc1C	-3	2.5
CCOc1ccccc1NC(=O)c1sc2nc(-c3ccc(OC)cc3)ccc2c1N	-4	-0.4
COc1ccc(-c2cn(-c3ccc(C)cc3)c(S(=O)(=O)CC(=O)Nc3ccccc3)n2)cc1	4	-0.6
O=C(NCc1ccccc1)C1CCN(c2ncnc3c2nc2n3CCCCC2)CC1	0	0.5
CCOC(=O)c1cccc(NS(=O)(=O)c2cc3[nH]c(=O)c(=O)[nH]c3cc2C)c1	-13	1.5
C#CCSc1nc(-c2ccccc2)c2cc(Cl)ccc2n1	3	1.9
COCCN1C(=O)c2[nH]nc(-c3ccccc3O)c2C1c1ccc(Cl)c(Cl)c1 (stereo not given)	-12	3.2
COC(=O)C(CCSC)NC(=O)c1cc2c(n(-c3ccc(C)cc3)c1=O)CC(C)(C)CC2=O (stereo not given)	-10	-0.2
Cc1ccc(S(=O)(=O)Nc2cccc(-c3ccc(N4CCCCC4)nn3)c2)s1	2	1.3
COc1cccc(CNC(=O)CSc2ccc(-c3sc(-c4ccccc4)nc3C)nn2)c1	18	2.0
NS(=O)(=O)c1ccc(CCNC(=O)CCCCCn2c(=O)[nH]c3ccccc3c2=O)cc1	-9	0.6
CCOc1ccc(-c2nonc2NC(=O)c2oc3ccc(CC)cc3c2C)cc1	-14	1.8
COc1ccc(/C=C\c2onc(C)c2S(=O)(=O)N2CCC(C(=O)Nc3cccc(Cl)c3)CC2)cc1	-1	1.1
O=C(Nc1ccc(F)cc1)c1nc(SCc2ccccc2F)ncc1Cl	?	-0.4
CC12CCC=CC1C(c1ccc(F)c(Br)c1)N(Cc1ccccc1)C2=O (stereo not given)	26	3.3
Cc1ccc(-n2c(=O)c3c(cnn3C)n(CC(=O)Nc3ccccc3C)c2=O)cc1	-1	-0.5
Cn1cc(-c2cc3n(n2)CCC(=O)N3CC(=O)NCc2ccccc2)c2ccccc21	-9	-0.3
COc1ccccc1-c1noc(CSc2nc3ccc(C)cc3[nH]2)n1	-5	-0.2
COc1cccc(N2CCN(c3ncnc4c3c(-c3ccccc3)cn4-c3ccc(C)cc3)CC2)c1	-7	0.8
CCOc1ccc(NC(=O)Cn2cc(C(=O)c3ccccc3)c(=O)c3cc4c(cc32)OCO4)cc1	1	-0.3
CC(C)c1ccccc1NC(=O)CN(c1ccccc1)S(=O)(=O)N(C)C	21	0.1
CCOC(=O)N1CCc2c(sc3c2C(=O)NC(c2cc(OC)c(O)c(OC)c2)N3)C1 (stereo not given)	-2	-0.3
CC(C)CNC(=O)N1CCN(S(=O)(=O)c2ccc3c(ccn3C)c2)CC1	-17	2.1
Cc1ccccc1OCC(=O)Nc1ccc2nc(SCC(N)=O)sc2c1	6	-0.9
Cc1cc(OC(C)C(=O)N(Cc2ccco2)Cc2ccco2)cc(C)c1Cl (stereo not given)	48	5.1
COC(=O)c1c(NC(=O)/C(C#N)=C/c2ccccc2)sc2c1C(C(=O)OC)CC2 (stereo not given)	1	1.0
CCCCN(C)CCCNC(=O)C1CCN(S(=O)(=O)CC)CC1	55	-0.1
Cc1ccc(C(=O)c2sc(Nc3ccc(F)cc3)nc2N)c(C)c1	-7	-0.7
CCOc1ccc(CNC(=O)c2cnc3sc(N4CCC(C)CC4)nn3c2=O)cc1OC	-3	-1.4
Cc1ccc(OCc2nc(-c3ccc(C(=O)NCCc4ccc(Cl)cc4)cc3)oc2C)cc1	-10	-0.5
CCOc1ccc(N2CC(NC(=O)C3CCCC3)CC2=O)cc1 (stereo not given)	-12	0.5
CCC(C(=O)NCCCN(CC)CC)n1ncn2c(cc3occc32)c1=O (stereo not given)	16	-0.3
O=S1(=O)C2CC3C=CC2(O3)C(O)C(Cc2ccccc2)N1Cc1cccc(C(F)(F)F)c1 (stereo not given)	0	0.9
CCN(c1ccccc1)S(=O)(=O)c1c(C)nc2scc(C)n2c1=O	-2	-0.1
Cc1ccc2c(CC(=O)Nc3ccc(S(=O)(=O)N4CCCC(C)C4)cc3)coc2c1 (stereo not given)	-17	1.1
COc1ccc(CCNC(=O)Cn2c(=O)c3cccn3c3ccc(F)cc32)c(OC)c1	-4	0.8
CC(=O)c1ccc(NC(=O)C2CCN(S(=O)(=O)c3c(C)noc3/C=C/c3ccc(C)cc3)CC2)cc1	21	-0.1
CCc1ccc(Nc2nc3c(S(=O)(=O)c4cccc(Cl)c4)nnn3c3ccsc23)cc1	2	-0.1
Cc1ccc(CCNC(=O)c2nnc(Cc3cccc(F)c3)o2)cc1	22	0.0
Cc1ccc(-c2cc(NC(=O)COc3ccc(Cl)c(C)c3)on2)cc1	-5	-0.2
COc1cc(C(=O)NCC(c2cccs2)S(=O)(=O)c2ccc(F)cc2)cc(OC)c1OC (stereo not given)	-9	1.2
COc1ccc(/C=C/c2noc(-c3ccccc3O)n2)cc1OC	-3	-0.4
CN(C)c1cccc(C(=O)N2CCC(c3c[nH]c4ccccc34)(c3c[nH]c4ccccc34)CC2)c1	18	-1.0
Cc1ccc(C2CCN(C(=O)c3cnn(-c4ccc(C)c(C)c4)c3C3CCN(C(=O)OC(C)(C)C)CC3)C2)cc1 (stereo not given)	11	1.5
CCCn1c(=O)c2sccc2n2c(CCCC(=O)NCCc3ccc(Cl)cc3)nnc12	11	-0.2
O=C(NCC(c1cccnc1)N1CCc2ccccc2C1)C(=O)Nc1cccc(Cl)c1 (stereo not given)	-12	-0.5
CC(=O)c1cccc(NC(=O)c2cc(-c3ccc(Cl)s3)nc3ccccc23)c1	-3	2.6
CC(C)NC(=O)N1CCC(N2CCN(Cc3ccc(F)cc3)C(=O)C2=O)CC1	13	0.1
Cc1cc(C)cc(NC(=O)C(=O)NCC(c2cccnc2)N2CCc3ccccc3C2)c1 (stereo not given)	0	-0.6
O=C(Nc1cc(-c2nc3ccccc3o2)ccc1Cl)c1cccc2c(Cl)cccc12	-12	-0.1

(next part)
canonical_smiles	TRPML1 blocker	TRPML1 agonist
COC(=O)c1sccc1S(=O)(=O)N(CC(=O)NCc1ccccc1)c1ccc(C)cc1	1	1.1
CCN(Cc1ccccc1)C(=O)CN1C(=O)CSc2ccc(S(=O)(=O)N(CC)CC)cc21	-14	0.2
CNC(=O)C1CCC(Cn2c(=O)c3sccc3n(CC(=O)Nc3ccc(C)c(C)c3)c2=O)CC1 (stereo not given)	9	0.8
Cc1ccc(C(=O)Nc2ccccc2C(=O)OCc2cc(=O)n3nc(C4CC4)sc3n2)cc1	24	-1.0
COc1ccc(CCNC(=O)c2ccc(Nc3nc4ccccc4n4nnnc34)cc2)cc1OC	11	2.0
COc1cccc(-c2ccc3c(N)c(C(=O)Nc4ccc(C)c(F)c4)sc3n2)c1	-9	-0.7
O=C(NCCc1ccccc1)c1ccc(CSc2nc3cccnc3n2Cc2ccccc2F)cc1	14	-0.2
Cc1ccc(C)c(N2CCN(S(=O)(=O)c3ccc(-c4cnc(C5CC5)o4)cc3)CC2)c1	0	-0.4
O=C1Nc2c(c(=O)[nH]c(=O)n2-c2ccccc2)C1(NS(=O)(=O)c1ccc(Cl)cc1)C(F)(F)F (stereo not given)	-11	0.6
CCOc1ccc(CNC(=O)CN2C(=O)C3CCCCN3c3ccc(C(=O)N4CCCC4)cc32)cc1 (stereo not given)	3	0.1
CCOC(=O)c1cccc(NC(=O)CCn2c(-c3ccc(F)cc3)cc(C(=O)OCC)c2C)c1	18	1.7
CCc1ccc2occ(CC(=O)Nc3c(C(=O)Nc4ccc(OC)cc4)oc4ccccc34)c2c1	0	-0.3
Cc1ccc(C)c(Nc2nn3c(=O)c4ccc(C(=O)NCCC5=CCCCC5)cc4nc3s2)c1	13	0.6
Cc1csc2nc(COC(=O)CNC(=O)c3ccccc3)cc(=O)n12	26	1.0
COc1cc(OC)c(NC(=O)Cc2c(C(=O)O)c(C)cn2C)cc1Cl	-11	0.2
CCOC(=O)c1[nH]c(C)c(CCC(=O)NCc2ccc(C)cc2)c1C	-4	-0.8
O=C(NCCCc1ccccc1)c1nn(-c2ccccc2)nc1CO	-12	4.3
Cc1cccc(N2CCN(C(=O)c3cc4ccc5cccnc5c4[nH]3)CC2)c1C	45	2.5
CCN(c1ccccc1C)S(=O)(=O)c1nnc(NC(=O)c2ccc(OC)c(OC)c2)s1	-29	2.3
Cc1cc(C)c2sc(N(Cc3cccnc3)C(=O)CCOc3ccccc3)nc2c1	-18	2.2
Cc1cccc(OCC(=O)Nc2ccc3oc(-c4ccccc4F)nc3c2)c1	-4	3.7
CC(C)Cn1cc(NC(=O)N2CCN(c3ccccc3F)CC2)c2ccccc2c1=O	-12	0.8
Cc1cccc(OCC(=O)OCc2cc(=O)n3nc(C4CC4)sc3n2)c1	-11	-0.8
Cc1ccc(-n2ncc3c(Nc4cccc(C)c4C)ncnc32)cc1	14	0.2
O=c1n(Cc2ccc(Cl)cc2)nc2n1-c1ccccc1OC2	3	0.1
CCc1ccccc1NC(=O)CSc1nnc2ccc3ccccc3n12	16	0.3
COc1ccccc1NC(=O)CSCc1cc(=O)c2c(C)cc(C)cc2[nH]1	-27	1.6
COc1ccc(CCNC(=O)CN2C(=O)COc3ccccc32)cc1OC	-17	3.2
COc1ccc(NC(=O)Cn2c(SCc3cc(C)ccc3C)nc3ccncc32)c(OC)c1OC	18	-0.8
Cc1cc(Cl)ccc1NS(=O)(=O)c1ccc2c(c1)CCN2S(C)(=O)=O	-5	-0.7

Complete entries as entered above. Screens in order: TRPML1 blocker, TRPML1 agonist
Profile of Cc1ccc(-c2cc(NC(=O)COc3ccc(Cl)c(C)c3)on2)cc1 → -5, -0.2
Profile of COc1cccc(N2CCN(c3ncnc4c3c(-c3ccccc3)cn4-c3ccc(C)cc3)CC2)c1 → -7, 0.8
Profile of CNC(=O)C1CCC(Cn2c(=O)c3sccc3n(CC(=O)Nc3ccc(C)c(C)c3)c2=O)CC1 (stereo not given) → 9, 0.8
Profile of COc1cccc(-c2ccc3c(N)c(C(=O)Nc4ccc(C)c(F)c4)sc3n2)c1 → -9, -0.7
Profile of COc1ccc(/C=C\c2onc(C)c2S(=O)(=O)N2CCC(C(=O)Nc3cccc(Cl)c3)CC2)cc1 → -1, 1.1

Some of these compounds in order of length of the SMILES, largest number first.
canonical_smiles	TRPML1 blocker	TRPML1 agonist
CCc1ccc2occ(CC(=O)Nc3c(C(=O)Nc4ccc(OC)cc4)oc4ccccc34)c2c1	0	-0.3
CCN(Cc1ccccc1)C(=O)CN1C(=O)CSc2ccc(S(=O)(=O)N(CC)CC)cc21	-14	0.2
CCN(c1ccccc1C)S(=O)(=O)c1nnc(NC(=O)c2ccc(OC)c(OC)c2)s1	-29	2.3
COc1cccc(-c2ccc3c(N)c(C(=O)Nc4ccc(C)c(F)c4)sc3n2)c1	-9	-0.7
Cc1csc2nc(COC(=O)CNC(=O)c3ccccc3)cc(=O)n12	26	1.0

Later entries:
canonical_smiles	TRPML1 blocker	TRPML1 agonist
Cc1ccc(-c2noc(CSc3nnc(C)n3-c3ccc(C)cc3)n2)cc1	17	1.1
O=C(NCCC1=CCCCC1)c1ccc2c(c1)ncn2-c1ccc(F)c(F)c1	-10	0.9
Cc1cccc(C)c1NC(=O)Cn1c(=O)n(CCC(=O)NCc2ccc3c(c2)OCO3)c(=O)c2sccc21	-11	0.1
Clc1cccc(-c2noc3ncnc(NC4CCCCC4)c23)c1	-12	1.2
CSc1ccc(CCNC(=O)c2ccc(CS(=O)(=O)c3ccc(Br)cc3)o2)cc1	9	2.8
COc1ccc(C(=O)N2CCN(C(=O)COc3ccc(C)cc3)CC2)cc1OC	-11	-0.4
COc1ccc(C(=O)CC2(O)C(=O)N(Cc3ccccc3Cl)c3ccccc32)cc1 (stereo not given)	7	6.2

Only part of the results is shown; count on the stated rates, not on these rows.
